Compound activity: PubChem, Broad Institute
FGF22 binding – shifts melting point of recombinant human FGF22; recombinant FGF22 thermal shift, SYPRO orange fluorescence; percent of sucrose octasulfate shift, DMSO zero; Q9HCT0; 340,000 compounds, 1.5% hits; AID 651658; calls only at 9.99 µM;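 active = melting point raised past a set limit in the mean and every replicate; three in four hits are not shown here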
Target sequence (Q9HCT0 whole entry, looked up): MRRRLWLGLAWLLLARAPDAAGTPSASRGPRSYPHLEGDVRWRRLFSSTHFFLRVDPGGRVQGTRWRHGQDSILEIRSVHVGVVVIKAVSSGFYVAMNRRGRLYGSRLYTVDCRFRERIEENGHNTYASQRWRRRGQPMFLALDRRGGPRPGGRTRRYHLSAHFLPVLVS
MLL AF4-AF9 inh – inhibitors of human MLL-AF4/AF9 interaction | AlphaScreen, biotin-AF4 peptide binding to FLAG-AF9 | inhibition, % at 10 µM | P42568 | 350,000 compounds, 0.47% hits;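 active = every replicate reaching a set inhibition limit, whatever the replicate mean, cut at about 25% in these data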;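 note: 0% = plate neutral control median and 100% = total signal loss; the record names both 10 and 1 µM as test concentration; the first replicate is given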
Target sequence (P42568 whole entry, looked up): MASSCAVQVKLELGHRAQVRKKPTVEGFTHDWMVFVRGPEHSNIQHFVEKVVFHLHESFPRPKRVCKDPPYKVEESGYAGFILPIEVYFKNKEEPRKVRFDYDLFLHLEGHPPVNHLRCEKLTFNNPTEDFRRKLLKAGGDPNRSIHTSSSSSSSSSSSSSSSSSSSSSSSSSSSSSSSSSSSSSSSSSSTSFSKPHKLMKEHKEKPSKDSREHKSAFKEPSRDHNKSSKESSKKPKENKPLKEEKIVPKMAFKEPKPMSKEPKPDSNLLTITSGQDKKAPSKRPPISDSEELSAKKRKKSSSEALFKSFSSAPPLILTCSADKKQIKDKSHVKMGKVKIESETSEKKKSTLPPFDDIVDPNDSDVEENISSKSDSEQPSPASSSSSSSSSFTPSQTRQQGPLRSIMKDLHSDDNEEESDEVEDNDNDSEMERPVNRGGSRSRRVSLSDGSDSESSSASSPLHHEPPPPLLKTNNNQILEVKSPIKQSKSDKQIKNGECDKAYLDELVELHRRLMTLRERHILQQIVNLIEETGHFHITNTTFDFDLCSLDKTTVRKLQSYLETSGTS
Starred values were filed as active, the others as inactive; i = inactive; + = active, no number; & = joins results of further samples.

Start of the data: the first three records as a preview:
| MLL AF4-AF9 inh | FGF22 binding | Structure |
| --- | --- | --- |
| 1.0 | i | C[C@@H]1CN([C@@H](C)CO)S(=O)(=O)c2ccc(C#Cc3ccccn3)cc2O[C@@H]1CN(C)Cc1ccccc1 |
| -1.3 | i | CO[C@@H](CN(C)S(=O)(=O)c1ccc(C)cc1)[C@@H](C)CN(Cc1ccccc1Cl)[C@H](C)CO |
| 5.0 | i | CC(C)NC(=O)NCC[C@H]1CC[C@H](NC(=O)Nc2ccccc2)[C@@H](CO)O1 |

Main list, repeating the preview:
| MLL AF4-AF9 inh | FGF22 binding | Structure |
| --- | --- | --- |
| 1.0 | i | C[C@@H]1CN([C@@H](C)CO)S(=O)(=O)c2ccc(C#Cc3ccccn3)cc2O[C@@H]1CN(C)Cc1ccccc1 |
| -1.3 | i | CO[C@@H](CN(C)S(=O)(=O)c1ccc(C)cc1)[C@@H](C)CN(Cc1ccccc1Cl)[C@H](C)CO |
| 5.0 | i | CC(C)NC(=O)NCC[C@H]1CC[C@H](NC(=O)Nc2ccccc2)[C@@H](CO)O1 |
| 4.4 | i | C[C@@H]1CN([C@@H](C)CO)C(=O)c2cccc(NS(=O)(=O)c3ccc(F)cc3)c2O[C@@H]1CN(C)Cc1ccc2c(c1)OCO2 |
| 1.7 | i | CC=Cc1ccc2n(c1=O)C[C@@H]1[C@@H](CO)[C@H](C(=O)NCC(F)(F)F)[C@H]2N1C(=O)CC (mixture of isomers) |
| -0.4 | i | CO[C@@H]1CN(C)C(=O)c2ccc(NC(=O)C3CC3)cc2OC[C@H](C)N(C(=O)C2CCOCC2)C[C@@H]1C |
| -0.8 | i | CC(C)OC(=O)N(C)C[C@H]1OCc2ccccc2-c2c(n(C)c3ccccc23)C(=O)N([C@@H](C)CO)C[C@H]1C |
| 2.8 | i | C[C@H](CO)N1C[C@H](C)[C@H](CN(C)C(=O)Nc2cccc3ccccc23)Oc2c(NC(=O)Nc3ccc(F)cc3)cccc2C1=O |
| 2.3 | i | C[C@@H]1CN([C@@H](C)CO)S(=O)(=O)c2ccc(C3=CCCC3)cc2O[C@@H]1CN(C)C(=O)Cc1ccncc1 |
| 1.8 | i | C[C@@H]1CN([C@@H](C)CO)C(=O)c2cc(NS(=O)(=O)c3cn(C)cn3)ccc2O[C@@H]1CN(C)S(=O)(=O)c1ccc(Cl)cc1 |
| 27.4* | i | CN(C)CC#Cc1ccc([C@@H]2[C@H](CO)N3CCCCN(CC4CC4)C[C@@H]23)cc1 |
| 0.7 | i | COc1ccc(S(=O)(=O)Nc2ccc3c(c2)C(=O)N([C@@H](C)CO)C[C@H](C)[C@H](CN(C)C(=O)Nc2ccc(F)cc2)O3)cc1 |
| -15.0 | i | O=C1CCCn2cc(nn2)COC[C@@H](Cc2ccccc2)N1 |
| -0.5 | i | CCCNC(=O)C[C@@H]1CC[C@H]2[C@H](COc3ccc(NC(=O)c4ccc(Cl)cc4)cc3C(=O)N2C)O1 |
| 2.1&-0.1 | i | C[C@H]1CN([C@@H](C)CO)C(=O)c2cc(-c3cncnc3)cnc2O[C@@H]1CN(C)C(=O)Nc1ccc2c(c1)OCO2 |
| -1.2 | i | C[C@@H]1CCCCO[C@@H](CN(C)S(C)(=O)=O)[C@H](C)CN([C@@H](C)CO)C(=O)c2cc(NS(=O)(=O)c3ccc(F)cc3)ccc2O1 |
| 0.1 | i | [N-]=[N+]=NCc1ccccc1C[C@]1(C(N)=O)N=C(c2ccc(OCCCO)cc2)O[C@H]1c1ccccc1 |
| -11.8 | i | COc1cccc(NC(=O)N(C)C[C@H]2Oc3cc(C#Cc4ccc(F)cc4)ccc3S(=O)(=O)N([C@H](C)CO)C[C@@H]2C)c1 |
| 0.8 | i | C[C@H](CO)N1C[C@H](C)[C@H](CN(C)Cc2ccc3c(c2)OCO3)Oc2ccc(NC(=O)Nc3cccc4ccccc34)cc2CC1=O |
| -1.5 | i | CN(C)C(=O)C[C@H]1CC[C@@H]2[C@@H](COc3ccc(NC(=O)c4ccc(F)c(F)c4)cc3C(=O)N2C)O1 |
| 6.6 | i | C[C@@H]1CN([C@H](C)CO)C(=O)c2cccc(NC(=O)Nc3ccccc3)c2O[C@@H]1CN(C)C(=O)Nc1ccc2c(c1)OCO2 |
| 0.3 | i | COc1ccc(CN(C)C[C@H]2Oc3ccc(N(C)C)cc3CC(=O)N([C@H](C)CO)C[C@H]2C)cc1 |
| -4.2 | i | CNC[C@H]1Oc2ccc(NC(=O)c3ccncc3)cc2CC(=O)N([C@H](C)CO)C[C@H]1C |
| 7.5 | i | COC(=O)[C@]1(CCC(=O)OC(C)(C)C)N=C(c2ccc(OCCCO)cc2)O[C@@H]1c1ccccc1N=[N+]=[N-] |

An excerpt from above in order of the MLL AF4-AF9 inh value, rising.
mol,MLL AF4-AF9 inh,FGF22 binding
CN(C)C(=O)C[C@H]1CC[C@@H]2[C@@H](COc3ccc(NC(=O)c4ccc(F)c(F)c4)cc3C(=O)N2C)O1,-1.5,i
C[C@@H]1CN([C@H](C)CO)C(=O)c2cccc(NC(=O)Nc3ccccc3)c2O[C@@H]1CN(C)C(=O)Nc1ccc2c(c1)OCO2,6.6,i
COC(=O)[C@]1(CCC(=O)OC(C)(C)C)N=C(c2ccc(OCCCO)cc2)O[C@@H]1c1ccccc1N=[N+]=[N-],7.5,i

Following part
| MLL AF4-AF9 inh | FGF22 binding | Structure |
| --- | --- | --- |
| 2.2 | i | Cc1ccc(-c2cnc3c(c2)C(=O)N([C@@H](C)CO)C[C@H](C)[C@@H](CN(C)CC2CCCC2)O3)cc1 |
| -0.7 | i | O=C([C@@H]1[C@@H](CO)[C@@H]2Cn3c(ccc(-c4ccccc4)c3=O)[C@H]1N2CCC(F)(F)F)N1CCCCC1 |
| 10.1 | i | COc1ccc(CN(C)C[C@H]2Oc3ccc(NC(=O)Nc4ccc5c(c4)OCO5)cc3C(=O)N([C@@H](C)CO)C[C@H]2C)cc1 |
| -22.9 | i | C[C@H](CO)N1C[C@H](C)[C@H](CN(C)C(=O)Nc2cccc3ccccc23)Oc2ccc(NC(=O)Nc3ccc(C(F)(F)F)cc3)cc2CC1=O |
| -0.3 | i | CCCNC(=O)C[C@H]1CC[C@@H]2[C@H](COC[C@H](O)CN2C(=O)c2ccccn2)O1 |
| -0.2 | i | O=C(C[C@@H]1CC[C@@H]2[C@H](COC[C@H](O)CN2C(=O)Nc2ccccc2)O1)NC1Cc2ccccc2C1 |
| -0.4 | i | C[C@@H]1CCCCO[C@@H](CN(C)C(=O)C2CCCCC2)[C@@H](C)CN([C@@H](C)CO)C(=O)c2cc(NC(=O)Cc3ccccc3)ccc2O1 |
| -12.1 | i | C[C@H](CO)N1C[C@H](C)[C@H](CN(C)S(C)(=O)=O)Oc2cc(-c3ccncc3)ccc2S1(=O)=O |
| -0.1 | i | C[C@@H]1CN([C@H](C)CO)S(=O)(=O)c2ccc(C#Cc3ccc(F)cc3)cc2O[C@@H]1CN(C)S(C)(=O)=O |
| 0.8 | i | CCCNC(=O)C[C@H]1CC[C@@H]2[C@@H](COc3ccc(NC(=O)Nc4cccc(C)c4)cc3C(=O)N2C)O1 |
| 0.0 | i | C[C@@H]1CN([C@@H](C)CO)C(=O)c2cc(NS(=O)(=O)c3cccs3)ccc2O[C@@H]1CN(C)C(=O)Nc1cccc2ccccc12 |
| -12.5 | i | Cc1ccc(S(=O)(=O)N(C)C[C@H]2Oc3ccc(NC(=O)Nc4ccc(C(F)(F)F)cc4)cc3C(=O)N([C@H](C)CO)C[C@@H]2C)cc1 |
| 10.2 | i | O=C(NCC[C@@H]1CC[C@@H](NC(=O)c2cccnc2)[C@@H](CO)O1)Nc1ccc(Cl)cc1 |
| -3.4 | i | CC(=O)N(C)C[C@@H]1Oc2ncc(-c3cccnc3)cc2C(=O)N([C@@H](C)CO)C[C@@H]1C |
| -0.4 | i | O=C(NCc1ccccc1Cl)[C@@H]1[C@@H](CO)[C@@H]2Cn3c(cccc3=O)[C@@H]2N1C(=O)C1CCC1 |
| -2.5 | i | CNC[C@H]1Oc2c(NC(=O)Nc3c(C)noc3C)cccc2C(=O)N([C@@H](C)CO)C[C@H]1C |
| -1.4 | i | COc1ccc2c3c(n(C)c2c1)[C@@H](CO)N(C(=O)c1cnccn1)CC31CN(C(=O)c2cnccn2)C1 |
| -0.9 | i | C[C@@H]1CCCCO[C@@H](CN(C)C(=O)NC2CCCCC2)[C@H](C)CN([C@H](C)CO)C(=O)c2cc(NC(=O)Nc3cccc4ccccc34)ccc2O1 |
| 0.1 | i | O=C(CN1CCOCC1)NCC[C@@H]1CC[C@H](NC(=O)Nc2ccc(C(F)(F)F)cc2)[C@H](CO)O1 |
| -0.7 | i | C[C@@H]1CN([C@@H](C)CO)C(=O)c2cc(Br)cnc2O[C@H]1CN(C)C(=O)c1ccc(F)cc1 |
| -0.4 | i | C[C@@H]1CN([C@H](C)CO)C(=O)c2cc(-c3cccc(C#N)c3)cnc2O[C@H]1CN(C)Cc1cncnc1 |
| -9.4 | i | O=C(NCC1CC1)[C@H]1[C@H](CO)[C@H]2Cn3c(ccc(-c4cccnc4)c3=O)[C@@H]1N2C(=O)C1CCCCC1 |
| -2.0 | i | CO[C@@H]1CN(C)C(=O)c2ccc(NC(=O)C3CCC3)cc2OC[C@H](C)N(Cc2ccncc2)C[C@@H]1C |
| -11.3 | i | CC(C)NC(=O)N(C)C[C@H]1Oc2c(NC(=O)c3ccc(-c4nccs4)cc3)cccc2C(=O)N([C@H](C)CO)C[C@@H]1C |
| 2.1 | i | CCCC#Cc1ccc2c(c1)O[C@H](CN(C)C(=O)C1CC1)[C@@H](C)CN([C@H](C)CO)S2(=O)=O |
| -1.3 | i | COc1ccc(S(=O)(=O)Nc2ccc3c(c2)C(=O)N([C@H](C)CO)C[C@@H](C)[C@H](CN(C)S(=O)(=O)c2ccc(F)cc2)OCCCC[C@@H](C)O3)cc1 |
| -2.8 | i | C[C@H](CO)N1C[C@H](C)[C@@H](CN(C)C)Oc2cc(C#CC3(O)CCCC3)ccc2S1(=O)=O |
| 10.2 | i | Cc1noc(C)c1NC(=O)Nc1ccc2c(c1)C(=O)N([C@H](C)CO)C[C@H](C)[C@H](CN(C)C(=O)Nc1ccc(F)cc1)O2 |
| 0.1 | i | C[C@H]1CN([C@@H](C)CO)C(=O)c2cc(NC(=O)CCCN(C)C)ccc2O[C@H]1CN(C)S(=O)(=O)c1cccs1 |
| -1.7 | i | COCC(=O)N1C[C@@H](C)[C@H](OC)CN(C)C(=O)c2cc(NC(=O)Nc3ccccc3)ccc2OC[C@H]1C |
| 0.4 | i | C[C@H](O)C#Cc1ccc([C@@H]2[C@H]3CN(C(=O)c4ccc5c(c4)OCO5)CCCCN3[C@H]2CO)cc1 |
| -1.7 | + | C[C@@H]1CN([C@H](C)CO)S(=O)(=O)c2ccc(-c3ccncc3)cc2O[C@@H]1CN(C)C(=O)Nc1ccc(C(F)(F)F)cc1 |
| -9.3 | i | C[C@@H]1CN([C@@H](C)CO)C(=O)c2cc(-c3cccc(F)c3)cnc2O[C@@H]1CN(C)Cc1cncnc1 |
| -4.5 | i | COc1ccc(S(=O)(=O)N(C)C[C@H]2Oc3c(NC(=O)C4CCOCC4)cccc3C(=O)N([C@@H](C)CO)C[C@H]2C)cc1 |
| 1.1 | i | C[C@@H]1CN([C@@H](C)CO)C(=O)Cc2cc(NS(=O)(=O)c3ccc(F)cc3)ccc2O[C@@H]1CN(C)Cc1ccc(C(=O)Nc2ccccc2N)cc1 |
| 2.6 | i | Cc1noc(C)c1S(=O)(=O)Nc1ccc2c(c1)C(=O)N([C@H](C)CO)C[C@@H](C)[C@@H](CN(C)Cc1ccc(C(=O)Nc3ccccc3N)cc1)O2 |
| -1.0 | i | COc1ccccc1C(=O)Nc1ccc2c(c1)C(=O)N(C)C[C@@H](OC)[C@H](C)CN(C)[C@H](C)CO2 |
| 2.8 | i | Cc1cc(C(=O)Nc2cccc3c2O[C@H](CN(C)Cc2ccc(C(F)(F)F)cc2)[C@@H](C)CN([C@@H](C)CO)C3=O)n(C)n1 |
| 0.2 | i | CN(C)C(=O)c1cccc(-c2ccccc2[C@H]2[C@@H](C#N)N(C(=O)C3CCCCC3)[C@H]2CO)c1 |
| -2.2 | i | C[C@@H]1CN([C@H](C)CO)C(=O)c2cc(NS(=O)(=O)c3cn(C)cn3)ccc2O[C@@H]1CN(C)C(=O)Nc1ccc2c(c1)OCO2 |
| -0.5 | i | C[C@H](CO)N1C[C@H](C)[C@H](CN(C)S(=O)(=O)c2cn(C)cn2)Oc2ccc(NC(=O)CCN3CCOCC3)cc2C1=O |
| -2.7 | i | Cc1noc(C)c1NC(=O)Nc1ccc2c(c1)C(=O)N([C@H](C)CO)C[C@H](C)[C@@H](CN(C)CC1CCCCC1)OCCCC[C@@H](C)O2 |
| 0.5 | i | C[C@@H](NC(=O)C[C@H]1CC[C@H]2[C@@H](COC[C@H](O)CN2C(=O)Nc2cc(Cl)cc(Cl)c2)O1)c1ccccc1 |
| 0.2 | i | CCCN(C)C[C@@H]1Oc2cc(C#Cc3ccc(F)cc3)ccc2S(=O)(=O)N([C@@H](C)CO)C[C@H]1C |
| -0.8 | i | CC(=O)N1[C@H](CO)[C@@H](c2ccccc2)[C@@H]1CN(C(=O)c1ccc(F)cc1)C(C)C |
| -4.4 | i | CC(C)NC(=O)N(C)C[C@H]1Oc2cc(C#CC(C)(C)O)ccc2S(=O)(=O)N([C@H](C)CO)C[C@H]1C |
| 7.5 | i | C[C@@H]1CCCCO[C@H](CN(C)Cc2ccc(C(F)(F)F)cc2)[C@@H](C)CN([C@@H](C)CO)C(=O)c2cc(NC(=O)CCCN(C)C)ccc2O1 |
| 0.8 | i | COc1ccccc1CN1[C@@H]2CN(C(=O)C3CCOCC3)c3ccccc3[C@@H]2[C@@H]1CO |
| -17.4 | i | C[C@@H]1CN([C@@H](C)CO)C(=O)c2cc(-c3ccccc3)cnc2O[C@@H]1CN(C)C(=O)Nc1ccccc1F |

Some of the compounds tested; the hit share may differ from the screen's.
